AID923 – qHTS Assay for Allosteric/Competitive Inhibitors of Caspase-1: Spectroscopic Profiling in AFC Spectral Region. compound fluorescence, AFC spectral region (405/520 nm); almost no hit is shown here. Potency, µM (doses to about 57.5 µM), without a hit: at the top dose fluorescence increase, actives largely listed as activators. 1.1% of 75,000 active; active = well fitted activation curve with a large enough effect; inconclusive = small, poorly fitted or top-dose-only effect;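 also: potency is read from the fitted curve at half-maximal effect; 0% is about no effect; scaled to a free AFC standard on each plate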
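Compound autofluorescence profiled at 405 nm ex/520 nm em during kinetic caspase 1 run (50 nM enzyme, 5 uM Ac-WEHD-AFC, HEPES pH 7.5, 10 mM DTT). Titration up to 57 uM; baseline from regression intercept, normalized to AFC standard curve.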
A488 fluor – compound autofluorescence in A488 spectral region; compound autofluorescence, A488 spectral region, dye equivalency; hits give high values; max dye equivalency, M; 0.1% of 59,000 active; active = above 10 nM dye equivalent; inconclusive = 1 to 10 nM; inactive = 1 nM or less; about half of its hits are not listed in these tables;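 also: highest value over a series up to 38 µM; compound alone in buffer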
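Intrinsic compound fluorescence is measured in 100 mM Tris buffer at pH 8.0 following 15 min incubation at room temperature. Intensities at 480 nm excitation/540 nm emission are calibrated to an on-plate A488 concentration series, giving dye-equivalent concentrations.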
TSHR agonist – TSH receptor (human) agonism; 0.48% of 73,000 active; HEK293-CNG-TSHR cells (CNG channel as cAMP sensor), membrane potential dye, cAMP; AID 926; Potency, µM (top dose mostly 57.1 µM), without a hit: at the highest dose activation, most hits filed as activators; P16473; active = well fitted activation curve of enough size with the parental cells flat; inconclusive = any curve in the parental cells; inactive = parental cells flat and receptor cells flat or falling; also: potency is read from the fitted curve at half-maximal effect; % of control where 0% means no effect; weak receptor curves with flat parental cells got no call and are not listed
Target sequence (P16473 whole entry, looked up): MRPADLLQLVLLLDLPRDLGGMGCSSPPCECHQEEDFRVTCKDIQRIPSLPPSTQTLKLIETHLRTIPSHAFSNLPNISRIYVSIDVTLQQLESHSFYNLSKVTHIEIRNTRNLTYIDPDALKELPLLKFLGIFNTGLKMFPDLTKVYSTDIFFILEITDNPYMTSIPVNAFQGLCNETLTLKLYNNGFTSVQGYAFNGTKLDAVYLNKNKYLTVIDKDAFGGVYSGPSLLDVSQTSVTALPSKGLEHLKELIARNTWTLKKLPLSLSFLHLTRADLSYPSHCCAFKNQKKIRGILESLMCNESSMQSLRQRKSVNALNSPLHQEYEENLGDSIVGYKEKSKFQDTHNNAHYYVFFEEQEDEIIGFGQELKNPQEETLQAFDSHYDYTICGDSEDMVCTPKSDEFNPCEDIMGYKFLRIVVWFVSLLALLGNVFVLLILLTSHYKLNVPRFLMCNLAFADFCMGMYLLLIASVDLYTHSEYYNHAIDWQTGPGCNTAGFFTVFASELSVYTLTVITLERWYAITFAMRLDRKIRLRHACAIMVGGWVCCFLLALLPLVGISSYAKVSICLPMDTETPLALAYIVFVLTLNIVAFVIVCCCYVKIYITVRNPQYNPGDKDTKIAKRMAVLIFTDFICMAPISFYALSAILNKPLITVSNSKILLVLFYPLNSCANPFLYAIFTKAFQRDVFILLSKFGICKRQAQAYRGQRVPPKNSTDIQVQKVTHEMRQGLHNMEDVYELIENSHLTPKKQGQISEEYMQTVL
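cAMP rise detected as CNG-channel membrane depolarization by fluorescent dye (emission 590 nm), 30 min after compound, following 60 min dye loading containing 100 uM RO 20-1724 at room temperature. Cells: TSHR/CNG HEK 293, with parental CNG HEK 293 as control.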
A647 autofl – compound fluoresces in the A647 spectral region; Compound fluorescence, A647 channel (570/671 nm), Tris buffer; max dye-equivalent concentration, M; 59,000 tested, under 10 active; AID 592; active means above 1 µM dye equivalent; inconclusive means 0.1 to 1 µM; inactive means 0.1 µM or less;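 also: values scaled relative to a standard on each plate; highest value over a series up to 38 µM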
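Spectral profiling of library compounds in pH 8.0 Tris: 15 min room-temperature incubation, single ex/em pair (570/671 nm), response normalized to Alexa 647 equivalents.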
Resorufin autofl – compound fluoresces in the resorufin spectral region | Compound fluorescence, resorufin region 547/598 nm, buffer; hits give high values | max dye-equivalent concentration, M | 0.04% of 59,000 active | AID 588; active = above 10 nM dye equivalent; inconclusive = 1 to 10 nM; inactive = 1 nM or less; a few of its hits are not listed in these tables; also: highest value over a series up to 38 µM
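Tris 100 mM pH 8.0; compound added, 15 min RT; CCD imager read, ex 547 nm/em 598 nm; signal normalized to resorufin standard curve (six concentrations per plate) as dye-equivalent concentration.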
An asterisk follows results filed as active; i = inactive; ? = inconclusive; / = no result given; & = joins results of further samples; [ ] = remark or other dose. Only part of the results is shown (hit frequency here may not be typical).

Values run as follows: AID923 | A488 fluor | TSHR agonist | A647 autofl | Resorufin autofl
> CC1CCN(C(=O)CSc2nnc(CNC(=O)c3ccco3)o2)CC1
    -0.6% | i | -1%[11.4 µM] | 2.1e-08 | i
> CCN(CC)C(=O)CSc1nc2ccccc2c(=O)n1-c1ccccc1OC
    -1.8% | i | ? | 2.8e-08 | i
> CCOC(=O)/N=C(/NC(=O)Nc1ccc(C(=O)OCC)cc1)OC
    2.3% | i | 4% | 1.8e-09 | i
> CCCC(OC(=O)CN1C(=O)COc2ccccc21)C(=O)NC1CCCC1 (centres undefined)
    0.4% | i | ? | 1e-09 | i
> COc1cc(S(=O)(=O)N(C)C)ccc1F
    -0.5% | i | 0% | 8.3e-09 | i
> CC(=O)c1ccc(N2CCN(C(=O)c3ccc(OCc4c(C)noc4C)cc3)CC2)cc1
    1.0% | i | 18% | 1e-09 | i
> O=C(CS(=O)(=O)Cc1ccccc1)Nc1ncccn1
    4.0% | i | -3% | 1e-09 | i
> CSCCNC(=O)c1ccc(C(C)(C)C)cc1
    -3.3% | i | 14% | 2.5e-08 | i
> O=C(O)CCC(=O)Nc1ccccc1C(=O)NC1CCCCC1
    -1.0% | i | -2% | 3.8e-08 | i
> Nc1nc(-c2cccnc2)nn1C(=O)COc1ccccc1
    0.5% | i | 2% | 1e-09 | i
> CC(C)(C)n1nc2c(c1NC(=O)c1cccs1)CS(=O)C2 (centres undefined)
    3.3% | i | ? | 2.1e-08 | i
> CC(=O)OC[C@@H]1O[C@@H](O/N=C2/C[C@@H](O)[C@@H](O)[C@@H]3[C@@H]4C(=O)N([C@@H](C)c5ccccc5)C(=O)[C@H]4CC[C@H]23)[C@H](OC(C)=O)[C@H](OC(C)=O)[C@@H]1OC(C)=O
    -1.3%[11.5 µM] | / | -7%[11.4 µM] | / | /
> Cc1cc(C)cc(/C=C/C2OCC(O)C2Oc2ccc(C3CCCC3)cc2)c1 (centres undefined)
    0.6%&-0.3%[11.5 µM] | / | -1%&-5%[11.4 µM] | / | /
> Cc1noc(NS(=O)(=O)c2ccc(N/C=C/C(=O)c3ccc4c(c3)OCO4)cc2)c1C
    13% | i | -11% | 1e-09 | i
> COc1ccccc1NC(=O)Cc1cccs1
    3.0% | i | 6% | 5.7e-09 | i
> CCc1c(C)n([O-])c2c([n+]1=O)CCCCC2
    2.6% | / | -3% | / | /
> CN1C(=O)N(C)C2C1N(CN1CCCCC1)C(=O)N2CN1CCCCC1 (centres undefined)
    -0.3% | i | -6% | 1e-09 | i
> Cc1ccc(SCCC(=O)NCC2CCCO2)cc1 (centres undefined)
    0.1% | i | / | 2.7e-08 | i
> Nc1ccccc1C#CCCCCO
    -0.6% | / | -2% | / | /
> O=C1OCCC1Sc1nc2cc(Cl)ccc2s1 (centres undefined)
    -0.3% | i | 5%[11.4 µM] | 2.2e-08 | i
> O=C(CSc1nnc(Cn2c(=O)sc3ccccc32)n1-c1ccccc1)NCC1CCCO1 (centres undefined)
    1.0% | / | 6% | / | /
> O=C(CNC(=O)Cn1ccc2ccccc2c1=O)NCCCN1CCN(c2cccc(Cl)c2)CC1
    1.2% | i | 7% | 7.7e-09 | i
> CCOC(=O)c1sc(=S)n(-c2cccc(OC)c2)c1N
    4.3% | i | -20% | 1.9e-09 | i
> O=C(c1ccco1)N1CCC2(CC1)CCN(c1ncccn1)CC2
    -1.5% | i | -1% | 1e-09 | i
> Cc1cc(N2CCC(C)CC2)n2ncc(-c3ccccc3)c2n1
    16% | i | 10% | 2.1e-08 | i
> Cc1n[nH]c(=O)nc1NCC1CCCO1 (centres undefined)
    -1.3% | i | -1% | 4e-08 | i
> COC(=O)c1c(C)[nH]c(C(=O)C(C)Sc2nnc(-c3cc(OC)c(OC)c(OC)c3)o2)c1C (centres undefined)
    0.1% | i | 10% | 4.4e-09 | i
> COc1ccc(C(C)C)cc1S(=O)(=O)Nc1ccc(Cl)cn1
    0.0% | i | / | 1e-09 | i
> CC(C)C12CN3CC(C(C)C)(CN(C1)C3c1ccccc1)C2O (centres undefined)
    1.2% | / | ? | / | /
> O=C(OCC(=O)N1CCCCC1)c1c[nH]c(=O)[nH]c1=O
    -1.1% | i | -1% | 1.7e-09 | i
> COc1ccc(C2C(C(=O)Nc3ccccc3OC)=C(C)Nc3nnnn32)c(OC)c1 (centres undefined)
    0.1% | i | 4% | 1e-09 | i
> O=C1CC(c2ccccc2)Sc2ccccc2N1 (centres undefined)
    0.1% | i | ? | 2.1e-09 | i
> CCOc1cccc(NC(=O)c2ccc(S(=O)(=O)N(C)C)cc2)c1
    0.7% | / | 0% | / | /
> O=S1(=O)N=C(Nc2ccc(N3CCOCC3)cc2)c2ccccc21
    -1.3% | i | -8% | 4.8e-09 | i
> COc1ccc(OCCC(=O)OCC(=O)NCc2ccco2)cc1
    2.1% | i | 0% | 3.3e-08 | i
> CC1(c2cccs2)CC(c2cccs2)=C(C#N)C(=O)N1 (centres undefined)
    3.9% | i | 9% | 2.3e-08 | i
> Cc1c(C(N)=O)c(N)c(C(=O)c2ccccc2)n1-c1ccccc1
    -1.0% | / | -5% | / | /
> CCN(CC)S(=O)(=O)c1ccc(NC2c3ncccc3C(=O)N2Cc2ccccc2)cc1 (centres undefined)
    -2.8% | i | 12% | 1e-09 | i
> O=C(CN1CCC(NC(=O)c2cccc(F)c2)CC1)NCc1ccccc1F
    0.6% | i | / | 6.3e-09 | i
> CC(C)N(C(=O)CN(C#N)c1nc(N(C)C)nc(N(C)C)n1)c1ccccc1
    -2.3% | / | -11% | / | /
> CCc1oc(C(=O)O)cc1CN(CC)CC
    0.6% | i | -2% | 2.7e-09 | i
> CC(C)c1cc(NCCN2CCOCC2)n2c(nc3ccccc32)c1C#N
    / | i | / | 2.1e-08 | i
> CCOC(=O)NC(=O)CSc1nnnn1-c1ccc(Cl)cc1
    -0.1% | i | -12% | 2.3e-08 | i
> Cn1c(NCCO)nc2c(c1=O)C1(CCCCC1)Cc1ccccc1-2
    -0.3% | / | -10% | / | /
> Clc1ccc(Cn2ncc3c(N4CCCCC4)ncnc32)cc1
    0.3% | i | -11% | 2e-08 | i
> COc1ccc(OC)c(C2C(C(C)=O)=C(O)C(=O)N2c2ccc(O)cc2)c1 (centres undefined)
    0.0% | i | 3% | 1.7e-09 | i
> O=C(O)c1cc(/C=N\O)ccc1OCc1ccccc1
    -1.6% | i | 0% | 1.9e-08 | i
> COC(=O)[C@H](C)NC(=O)Nc1ccc(C)c(C)c1
    -0.7% | i | / | 8.8e-09 | i
> c1ccc2nc(-c3nc4ccccc4[nH]3)ccc2c1
    -0.1% | i | ? | 1e-09 | i
> c1ccc(C2=Nn3c(nnc3-c3n[nH]c4c3CCC4)SC2)cc1
    -0.6% | i | 13% | 3.2e-08 | i
> C=C(C)c1cccc(C(C)(C)NC(=O)Nc2ncccn2)c1
    -0.2% | i | ? | 1e-09 | i
> CC(C)CC(=O)Nc1ccc(-c2cn3ccsc3n2)cc1
    -0.6% | i | -12% | 2.8e-08 | i
> CC(CN1CCCC1)OC(=O)COc1ccccc1 (centres undefined)
    0.7% | i | 2% | 2e-08 | i
> COc1ccc(/C(O)=C2/C(=O)C(=O)N(CCCN(C)C)C2c2ccccc2)cc1Cl (centres undefined)
    / | i | / | 4.4e-08 | i
> COc1ccc(Cn2nnnc2C(c2cccs2)N2CCSCC2)cc1 (centres undefined)
    2.2% | i | ? | 1e-09 | i
> COc1ccc(CN2CCN(C(=O)CC(C)C)CC2)c2ccccc12
    -1.0% | i | ? | 1.7e-08 | i
> CCOC(=O)c1[nH]c(C)c(/C=N/O)c1C
    -1.5% | i | 0% | 3.7e-08 | i
> CC(NC(=O)OCc1ccccc1)C(=O)OCN1C(=O)c2ccccc2C1=O (centres undefined)
    / | i | / | 2.5e-09 | i
> N#Cc1c(SCC(N)=O)nc2c(c1-c1ccc(O)cc1)CCCC2
    1.0% | / | 25% | / | /
> CCC(C)NC(=O)C(NS(=O)(=O)c1cccc2nsnc12)c1ccccc1 (centres undefined)
    -0.5% | i | 6% | 3.8e-09 | i

A different layout for some results above:
Molecule: O=C(CN1CCC(NC(=O)c2cccc(F)c2)CC1)NCc1ccccc1F
- AID923 = 0.6%
- A488 fluor = i
- TSHR agonist = /
- A647 autofl = 6.3e-09
- Resorufin autofl = i
Molecule: CC(C)c1cc(NCCN2CCOCC2)n2c(nc3ccccc32)c1C#N
- AID923 = /
- A488 fluor = i
- TSHR agonist = /
- A647 autofl = 2.1e-08
- Resorufin autofl = i
Molecule: CC(C)CC(=O)Nc1ccc(-c2cn3ccsc3n2)cc1
- AID923 = -0.6%
- A488 fluor = i
- TSHR agonist = -12%
- A647 autofl = 2.8e-08
- Resorufin autofl = i

Next records.
Values run as follows: AID923 | A488 fluor | TSHR agonist | A647 autofl | Resorufin autofl
> Brc1c(CSc2nncn2-c2ccccc2)nc2sccn12
    -0.4% | i | 3% | 1e-09 | i
> Cc1c(C(=O)Nc2ccncc2)oc2ccccc12
    1.2% | i | 20% | 1.3e-09 | i
> CCOc1ccccc1C1NC(=O)NC(C)=C1C(=O)OCc1ccco1 (centres undefined)
    -0.4% | / | -7% | / | /
> CN1C(=O)N(C)C(NC(=O)Nc2ccccc2)C1NC(=O)Nc1ccccc1 (centres undefined)
    -1.1% | i | ? | 7.2e-09 | i
> COc1ccc(S(=O)(=O)N2CCN(C(=O)[C@@H]3CCC(=O)N3C3OC(=O)c4ccccc43)CC2)cc1 (some centres undefined)
    1.8% | i | 0% | 4.2e-09 | i
> COc1ccc(CC(NC(C)=O)C(=O)NC2CCN(c3c4c(nc5ncnn35)CCC4)CC2)cc1 (centres undefined)
    0.1% | i | -5% | 1.6e-08 | i
> COc1ccccc1OCc1nnc(SCC(=O)NCc2ccco2)n1Cc1ccco1
    -0.2% | i | ? | 1.3e-08 | i
> c1cc2c(cc1Nc1nc(-c3ccc4c(c3)OCO4)cs1)OCCO2
    3.5% | i | ? | 5.3e-09 | i
> CS(=O)(=O)N(C(=O)NC(=O)NC1CCS(=O)(=O)C1)C1CCCCC1 (centres undefined)
    1.0% | i | -2% | 1.2e-09 | i
> O=C(Nc1ccc(N2CCCC2)cc1)c1ccc(Br)o1
    -1.0% | / | 1%[11.4 µM] | / | /
> COc1cc(NC(=O)c2cc3ccccc3o2)c(OC)cc1Cl
    11% | / | ? | / | /
> COc1ccc(NC(=O)CN2CCN(CC(=O)Nc3ccc4c(c3)OCO4)CC2)cc1
    -0.2% | i | 10% | 2.2e-08 | i
> CSc1cccc(NC(=O)OC2CCCCCCCCCCC2)c1
    -3.5%[11.5 µM] | i | 0%[11.4 µM] | 5.7e-08 | i
> O=C(Nc1ccc(N2CCCCC2)cc1)c1ccccc1
    2.5% | / | 0% | / | /
> COc1ccc(/C=C/C(=O)c2ccc(OC)cc2O)cc1
    2.6%[11.5 µM] | / | -7%[11.4 µM] | / | /
> CCOc1cccc(C(=O)N(Cc2ccc(F)cc2)C2CCS(=O)(=O)C2)c1 (centres undefined)
    -3.4% | i | 9% | 5.2e-09 | i
> Cc1cccc(-c2nc(CSCC(=O)N3CCN(c4ccccn4)CC3)c(C)o2)c1
    -1.0% | i | ? | 2.1e-08 | i
> CC(=O)NCCNc1ncnc2ccc(-c3c(C)noc3C)cc12
    2.6% | i | 4% | 2.6e-08 | i
> CS(=O)(=O)CCNCc1nc(-c2ccc3ncnc(Nc4ccc(OCc5cccc(F)c5)c(Cl)c4)c3c2)cs1
    0.5% | / | 1% | / | /
> CCCCN(CC)C(=O)Cc1c(C(=O)O)[nH]c2ccc(Cl)cc12
    -1.0% | i | -8% | 1e-09 | i
> O=C1CCCN1CC(CN1CCOCC1)Sc1nnnn1-c1ccccc1 (centres undefined)
    -0.1% | i | 3% | 2.4e-08 | i
> Cc1ccc(C)c(S(=O)(=O)Nc2ccc(S(=O)(=O)Nc3onc(C)c3C)cc2)c1
    0.0% | i | 0% | 8e-09 | i
